Assay outcomes from PubChem BioAssay.
Six1-Eya2 inh: Six1/Eya2 interaction inhibition; Q15475+O00167; activity change, % (test concentration not listed); AID 651725; hit rate 0.56% among 360,000; AlphaScreen GST-Six1/His-Eya2 binding, biochemical; stronger effect = lower value; control for the full effect not named in the record; in the data active = activity change below about -65%; inconclusive = about -30% to -65%; inactive = above about -30%; also: % is scaled to controls: 0 for no effect and ±100 for the full control effect; compound concentration not given in the record
Target sequence (O00167 whole entry, looked up): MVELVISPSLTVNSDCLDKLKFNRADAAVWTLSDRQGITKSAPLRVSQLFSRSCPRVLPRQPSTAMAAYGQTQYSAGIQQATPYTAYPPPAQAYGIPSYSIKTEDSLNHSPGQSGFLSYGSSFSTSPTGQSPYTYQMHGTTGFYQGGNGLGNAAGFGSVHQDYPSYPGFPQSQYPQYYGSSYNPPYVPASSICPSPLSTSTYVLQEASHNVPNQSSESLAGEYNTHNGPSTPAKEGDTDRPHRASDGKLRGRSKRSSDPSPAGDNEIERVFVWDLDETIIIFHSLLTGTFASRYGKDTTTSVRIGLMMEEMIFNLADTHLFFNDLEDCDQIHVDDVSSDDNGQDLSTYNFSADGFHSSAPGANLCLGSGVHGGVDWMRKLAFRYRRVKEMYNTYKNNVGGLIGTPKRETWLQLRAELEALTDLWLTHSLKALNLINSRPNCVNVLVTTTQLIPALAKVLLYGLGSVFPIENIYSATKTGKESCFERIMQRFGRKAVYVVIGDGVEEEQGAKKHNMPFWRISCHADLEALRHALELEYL
Target sequence (Q15475 whole entry, looked up): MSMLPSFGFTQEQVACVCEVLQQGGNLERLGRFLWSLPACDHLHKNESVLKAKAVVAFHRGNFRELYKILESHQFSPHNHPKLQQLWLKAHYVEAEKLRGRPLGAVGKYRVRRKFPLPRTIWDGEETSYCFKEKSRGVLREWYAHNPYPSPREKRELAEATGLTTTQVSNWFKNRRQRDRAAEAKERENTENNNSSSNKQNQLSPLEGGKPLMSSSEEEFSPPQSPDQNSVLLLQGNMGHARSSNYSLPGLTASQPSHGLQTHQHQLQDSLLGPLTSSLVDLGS
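AlphaScreen luminescence read after one hour at 37 °C in darkness. Pin-transferred compounds met GST-Six1 and His-Eya2 protein (5X stock 250 nM/500 nM) plus glutathione donor and Ni-chelate acceptor beads (5X, 50 ug/mL).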
D2 agonist: agonists of human D2 dopamine receptor (beta-arrestin) | P14416 | DiscoveRx PathHunter D2 beta-arrestin, luminescence, 90 min; 100% = 57 uM dopamine signal | activation, % (no concentration beside the values) | hit rate 0.084% among 360,000 | AID 624465; in the data active = activation above about 40%; inconclusive = about 15% to 40%; inactive = below about 15%; also: compound concentration not given in the record; the text of the record calls up to 30% inactive
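DiscoveRx PathHunter D2 beta-arrestin cells (2,100/well) attached overnight, then compound-stimulated 90 min at 37 C in HBSS/10 mM HEPES/0.1% Tween-20 buffer; beta-galactosidase complementation read by luminescence after 1 h at ambient temperature. Dopamine 57 uM final (EC100) as control.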
PINK1 modulator: changes PINK1 expression | PINK1 immunofluorescence, high-content cytometry, 24 h | Potency, µM (series often up to 76.6 µM), for inactives: at the highest dose activation (PINK1 increase), actives largely listed as activators | hit rate 0.2% among 410,000 | AID 624263; active = well fitted activation curve with a large enough effect; inconclusive = small, poorly fitted or top-dose-only effect; inactive = flat fitted curve, though single readings scatter; cell line not stated here;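 also: potency is read from the fitted curve at half-maximal effect; % of control where 0% means no effect; nearly all actives have a fitted effect of over 65% in size; a mitochondrial uncoupler was the plate control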
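PINK1 protein level read as immunofluorescence by microplate cytometer in a fixed, stained stable cell line after 24 h exposure to five compound concentrations, with CCCP as control.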
CtBP-E1A inh: inhibitors of CtBP/E1A interaction; AlphaScreen GST-E1A/His-CtBP binding, 1536-well; stronger effect = lower value; control for the full effect not named in the record; activity change, % (no concentration beside the values); hit rate 0.49% among 340,000; in the data active means activity change below about -65%; inconclusive means about -30% to -65%; inactive means above about -30%; also: % is scaled to controls: 0 for no effect and ±100 for the full control effect; compound concentration not given in the record
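Protein mix (5X: 125 nM each GST-E1A, His-CtBP) was incubated with pinned compound 2 h at 37 deg C in dark, in 50 mM Tris pH 8.0 buffer with 300 mM NaCl. Glutathione donor and nickel acceptor beads followed; AlphaScreen signal read after 1 h.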
TRPML1 agonist: agonists of human TRPML1 channel; Q9GZU1; TRPML1-expressing cells, Ca2+ dye fluorescence, FDSS; host cell line not named in the record; reference of the full effect not given here; activation, % (test concentration not listed); hit rate 0.12% among 410,000; AID 624414; in the data active = activation above about 50%; inconclusive = about 30% to 50%; inactive = below about 30%; also: 0% is about no effect; the text of the record puts the active cut at 80%
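TRPML1-DL cells, Tet-induced overnight (~16 h, 37 degrees C), loaded 45-90 min at room temperature with Ca8 no-wash calcium dye plus quencher. FDSS fluorescence: 10 s baseline, compound pin-transfer, 110 s agonist read, then EC80 54-4 (4uM final) and 110 s antagonist read.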
TRPML1 inh: inhibitors of human TRPML1 channel; activity change, negative = inhibition, % (no concentration beside the values); AID 624415; Q9GZU1; hit rate 0.02% among 390,000; TRPML1-inducible cells, Ca2+ dye fluorescence, FDSS; stronger effect = lower value; inhibition of EC80 agonist-evoked calcium signal; in the data active means activity change below about -50%; inconclusive means about -30% to -50%; inactive means above about -30%;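 also: stimulus is agonist 54-4 at its EC80 concentration; % is scaled to controls: 0 for no effect and ±100 for the full control effect; compound concentration not given in the record; the text of the record puts the active cut at -80%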
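Calcium fluorescence in TRPML1-DL cells induced overnight with Tet: a 110 s read after compound pin addition, then a 110 s antagonist read after challenge with 54-4 at 4 uM final (EC80).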
The depositor's hits bear a star; ? = inconclusive; / = not tested or not shown; [ ] = another dose, or the depositor's remark.

smiles	Six1-Eya2 inh	D2 agonist	PINK1 modulator	CtBP-E1A inh	TRPML1 agonist	TRPML1 inh
COc1ccc(N2CCN(C(c3ccccc3)c3sc4nc(C)nn4c3O)CC2)cc1 (stereo not given)	-1	-2.0	1.4%	-13	-0.2	8
COC(=O)c1sc2cc(C(F)(F)F)cnc2c1-c1ccccc1	3	1.9	/	11	0.4	25
COc1ccc(-c2nc(N)n(C(=O)c3ccc(C)cc3)n2)cc1	1	-2.1	15%	7	3.7	-8
Cc1cc(C)cc(C(=O)NC2CC(C)(C)NC(C)(C)C2)c1	-3	-0.1	-0.1%	1	0.3	-6
O=C(NC1(C(F)(F)F)N=C(c2ccccc2)NC1=O)c1ccccc1 (stereo not given)	10	-2.7	1.1%	3	-0.2	2
N/C(=N\OC(=O)COc1ccccc1)c1cccnc1	3	-3.1	2.6%	/	0.8	-12
CCCCN(NC(C)=O)c1nc(Cl)nc(NC(C)C)n1	5	0.4	-1.3%[38.3 µM]	1	0.3	6
C=CCc1cc(OC)ccc1OCCON1C(=O)CCC1=O	0	-2.2	0.6%	-2	-0.7	-1
CCNC(=O)CN(c1ccc(F)cc1)S(=O)(=O)c1ccc2c(c1)OCCO2	-3	-4.5	-2.9%	-6	0.3	12
COc1ccc(-c2[nH]ncc2C(=O)NCc2cccc(OC)c2)cc1	/	/	0.6%	/	0.3	3
CCc1ccccc1NC(=O)CCS(=O)(=O)c1ccc(OC)cc1	-15	2.0	0.7%	0	0.1	-4
COc1ccc(OC)c(S(=O)(=O)N2CCN(Cc3nc4ccc(C)cc4o3)CC2)c1	/	/	1.5%	/	0.4	-8
CC(C)(C)NC(=O)COc1ccc(CNCc2ccccn2)cc1	?	1.4	-0.8%	-9	1.2	4
O=C(CN(Cc1ccccc1)C1=NCCS1)c1ccccc1	14	-3.5	-1.3%	-1	-0.3	21
Cn1c(NC(=O)c2ccccc2C(F)(F)F)cc(=O)n(C)c1=O	-2	-1.6	0.0%	2	-0.6	0
Cc1ccccc1N(C(=O)c1snc(C(N)=O)c1N)C(C(=O)NC1CCCCC1)c1ccc(O)cc1 (stereo not given)	1	-0.5	-3.2%	4	0.3	-1
CCOC(=O)CC1C(=O)NCCN1C(=O)c1ccc(Cl)c(Cl)c1 (stereo not given)	10	-2.8	0.8%	4	-0.1	-7
Cc1ccc(-n2nnnc2SCc2ccc(C(=O)O)cc2)cc1C	4	-0.5	1.3%	1	/	/
CCOC(=O)C1CCCN(Cc2ccccc2OCC)C1 (stereo not given)	0	-2.8	0.0%[38.3 µM]	3	-0.4	-11
CCNC(=O)C1CCCN(C(=O)c2cccc(OC(F)(F)F)c2)CC1 (stereo not given)	9	-3.2	1.2%	7	-0.5	/
O=CN1N=C(c2ccccc2)CC1c1ccc(Cl)cc1 (stereo not given)	5	0.2	0.0%	-14	-0.1	-1
CCOC(=O)Cn1ccc(NC(=O)c2ccc3c(c2)OCO3)n1	-1	-2.2	0.9%	/	0.9	4
COc1ccc(-n2c(SCC(=O)Nc3cc(C)on3)nc3ccccc3c2=O)cc1Cl	-16	-2.6	-0.8%	11	-0.3	-6
COc1cc(/C=C2/SC(N)=NC2=O)ccc1Oc1ccc([N+](=O)[O-])cc1[N+](=O)[O-]	-2	-2.9	-1.2%	-8	-0.1	33
Cn1ncc2c(O/N=C(\N)c3ccc(C(F)(F)F)cc3)ncnc21	-2	?	-1.5%	/	-0.6	0

Compounds above with a halogen:
smiles	Six1-Eya2 inh	D2 agonist	PINK1 modulator	CtBP-E1A inh	TRPML1 agonist	TRPML1 inh
COC(=O)c1sc2cc(C(F)(F)F)cnc2c1-c1ccccc1	3	1.9	/	11	0.4	25
O=C(NC1(C(F)(F)F)N=C(c2ccccc2)NC1=O)c1ccccc1 (stereo not given)	10	-2.7	1.1%	3	-0.2	2
CCCCN(NC(C)=O)c1nc(Cl)nc(NC(C)C)n1	5	0.4	-1.3%[38.3 µM]	1	0.3	6
CCNC(=O)CN(c1ccc(F)cc1)S(=O)(=O)c1ccc2c(c1)OCCO2	-3	-4.5	-2.9%	-6	0.3	12
Cn1c(NC(=O)c2ccccc2C(F)(F)F)cc(=O)n(C)c1=O	-2	-1.6	0.0%	2	-0.6	0
CCOC(=O)CC1C(=O)NCCN1C(=O)c1ccc(Cl)c(Cl)c1 (stereo not given)	10	-2.8	0.8%	4	-0.1	-7
CCNC(=O)C1CCCN(C(=O)c2cccc(OC(F)(F)F)c2)CC1 (stereo not given)	9	-3.2	1.2%	7	-0.5	/
O=CN1N=C(c2ccccc2)CC1c1ccc(Cl)cc1 (stereo not given)	5	0.2	0.0%	-14	-0.1	-1
COc1ccc(-n2c(SCC(=O)Nc3cc(C)on3)nc3ccccc3c2=O)cc1Cl	-16	-2.6	-0.8%	11	-0.3	-6
Cn1ncc2c(O/N=C(\N)c3ccc(C(F)(F)F)cc3)ncnc21	-2	?	-1.5%	/	-0.6	0

Going on with the list.
smiles	Six1-Eya2 inh	D2 agonist	PINK1 modulator	CtBP-E1A inh	TRPML1 agonist	TRPML1 inh
Cc1ccc(C(=O)COC(=O)C(Cc2c[nH]c3ccccc23)NC(=O)c2ccc(C(C)(C)C)cc2)cc1 (stereo not given)	/	/	-0.7%	/	1.5	-15
O=C(CN1CCN(S(=O)(=O)c2ccc(Br)cc2)CC1)N/N=C/c1ccco1	-2	0.9	-0.4%	-1	1.3	-19
Cc1ccc(C(=O)NC(=C(Cl)Cl)S(=O)(=O)c2ccc(C)cc2)cc1	3	-0.8	0.7%	-2	-0.8	-12
O=C(c1ccc(F)c(S(=O)(=O)N2CCOCC2)c1)N1CCN(c2ccc(F)cc2)CC1	0	8.8	1.2%	1	1.6	-5
CC(C)NC(=O)CN1CCN(Cc2nc(-c3cccs3)no2)CC1	1	2.7	-1.4%	6	0.2	0
Cc1ccsc1C(=O)N1CCc2ccccc2C1	0	2.1	-1.3%	-1	0.8	19
Cc1nc(-c2cccc(S(=O)(=O)N3CCCC(C)C3)c2)cs1 (stereo not given)	-6	-6.4	3.5%	4	-1.2	-3
O=C(O)CNc1ccc(S(=O)(=O)C(F)(F)F)cc1[N+](=O)[O-]	2	8.3	1.0%	-3	-0.1	-15
COc1ccc(-c2ccccc2)cc1NCc1ccc(OC)c(OC)c1	-15	-1.3	-1.2%	-1	1.4	10
N#Cc1c(-c2ccc([N+](=O)[O-])cc2)nc2n(c1=O)CCS2	1	14	-1.7%	-2	0.4	-7
Cc1cc(NC(=O)COC(=O)c2ccccc2Cl)no1	8	-1.1	2.1%	-1	0.2	-9
COc1ccc(CCNC(=O)CSc2nnc(-c3ccc(F)cc3)o2)cc1OC	2	0.1	?	-10	-0.3	-3

Compounds were not picked by outcome; any-hit rate near 1%.
